Screening results from PubChem.
NPYLR7 ag – mosquito NPYLR7 agonism; AID 1259423; 0.15% of 270,000 active; HEK293T NPYLR7/Galpha15, GCaMP6s calcium fluorescence; activation, % at 10 µM; in the data active = activation above about 40%;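 also: 0% = vehicle and 100% = reference agonist at the receptor; some compounds past the cut are filed as inactive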
NPYLR7 ag max-min – second read-out of NPYLR7 ag, no call of its own (marks repeat the call); activation, %; measured here: Max-Min RFU normalised activation; some inactives read as strong as hits;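 span of the calcium signal over five minutes; 0% = vehicle and 100% = native peptide agonist; compound fluorescence can raise it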
Active calls of the source: *; & = joins results of further samples. Only part of the results is shown; rates above refer to the full screens.

#1 CCNC(=O)C1CCN(c2cc(C(C)C)nc(C)n2)C1 (stereo not drawn)
#2 CC(C)(C)c1ccc(C(=O)N2CCC3(CC2)SCCN3C(=O)c2ccc(F)cc2)cc1
#3 CCCCNC(=O)CSc1nc2ccccc2c(=O)n1CCCN(CC)CC
#4 Cc1cc(CC(=O)N2CCCn3nc(C(=O)Nc4ccccc4)cc3C2)on1
#5 CC(N(C)C(=O)c1cccc(NS(C)(=O)=O)c1)C(C)(C)C (stereo not drawn)
#6 CN(C)C(CNC(=O)c1ccc(C#N)cc1)c1cccs1 (stereo not drawn)
assay / entry,1,2,3,4,5,6
NPYLR7 ag,6,-8,4,-1,1,1
NPYLR7 ag max-min,7,3,-1,-5,1,-2

#7 COc1cccc(C(CN2CCN(S(=O)(=O)c3cccc(OC)c3)CC2)OCc2ccc(C#N)cc2)c1 (stereo not drawn)
#8 Cn1nc(C(=O)N2CCCC(C(=O)c3ccc(-c4ccccc4)cc3)C2)c2ccccc2c1=O (stereo not drawn)
#9 COCC(=O)N(Cc1cc(NC(=O)c2cccc(F)c2)ccc1N(C)C)C1CCCCC1
#10 C=CCc1ccccc1OCCN(C)c1ncnc2oc(C)nc12
#11 Cc1ccccc1N=C(N)Nc1ccccc1C
#12 CCOC(=O)[C@H]1[C@@H](O)C(=O)N(Cc2ccccc2)C12CCN(C(=O)c1cccs1)CC2
assay / entry,7,8,9,10,11,12
NPYLR7 ag,26,-5&10,-1,-4,3,1
NPYLR7 ag max-min,16,-7&4,11,-9,-5,7

#13 COc1ccc(-c2nc3cc(N)c(C#N)c(=O)n3[nH]2)cc1
#14 Nc1cc(-c2cccc(Cl)c2)nn1-c1ccc(C(=O)NCCc2ccccn2)cc1
#15 O=C(c1ccc(Oc2ccccc2)o1)N1CCCn2cncc2C1
#16 C(/C=C/CC=Nc1ccccc1)=Nc1ccccc1
#17 CC(C)CN(Cc1ccccn1)C(=O)c1cccc2ccccc12
#18 Cc1ccc(-c2cc(C(=O)N3CCC(C)CC3)c3ccccc3n2)cc1C
assay / entry,13,14,15,16,17,18
NPYLR7 ag,2,-5,19,66*,-3,1
NPYLR7 ag max-min,11,-10,13,59*,-5,1

#19 O=C(COc1cccc2cccnc12)NC1CCSc2ccccc21 (stereo not drawn)
#20 COc1ccc(OC)c(NC(=O)Nc2ccc(Nc3cc(-n4ccnc4)ncn3)cc2)c1
#21 Cc1cc(C(=O)N(Cc2ccco2)c2nc3c(F)cc(F)cc3s2)nn1C
#22 CN(CC1Cc2ccccc2O1)C(=O)CCc1nnc(Cc2ccc3c(c2)OCO3)o1 (stereo not drawn)
#23 CCCc1nc(CNC(=O)c2ccn3nnnc3c2)cs1
#24 O=C(NCc1ccc(Cl)cc1Cl)Nc1nc([C@@H]2O[C@H](CO)[C@@H](O)[C@H](O)[C@H]2O)cs1
assay / entry,19,20,21,22,23,24
NPYLR7 ag,8,2,-5,1,-2,12
NPYLR7 ag max-min,1,1,-3,0,-9,15

#25 CN(C)C(=O)Cc1ccccc1NC(=O)N(CCCO)CC(C)(C)C
#26 OC1CCC(NC(=S)Nc2ccc(SC(F)F)cc2)CC1 (stereo not drawn)
#27 CN(CC(=O)Nc1ccc(N2CCCC2=O)cc1)C1CCCCC1
#28 Cc1ccc(-n2nc(-c3ccc(Cl)cc3)cc2NC(=O)CCc2ccccc2)cc1
#29 CCOc1nc(-c2ccccc2C)n(-c2cccc(NC(=O)c3ccc(C)cc3)c2)n1
#30 COc1cccc(NC(=O)CSc2nnc(C3COc4ccccc4O3)n2C)c1 (stereo not drawn)
assay / entry,25,26,27,28,29,30
NPYLR7 ag,3,3,-13,23,19,15
NPYLR7 ag max-min,0,2,-10,25,25,14

#31 Cn1c(=O)[nH]c(=O)c2c1nc(N1CCN(Cc3ccccc3)CC1)n2Cc1ccc(Cl)cc1Cl
#32 CN(Cc1nc2ccc(F)cc2[nH]1)CC1CCNCC1
#33 CC1(Cc2cc(Cl)ccc2C(F)(F)F)C(=O)Nc2cc(-c3ccc(F)cc3F)ccc21 (stereo not drawn)
#34 CC(C)c1ccc(CN2CCCC(O)(CN(C)Cc3cnn(C)c3)C2=O)cc1 (stereo not drawn)
#35 CC(N(C)c1ccc2nnc(C(F)(F)F)n2n1)C1(C)CC1 (stereo not drawn)
#36 Cc1nc(NCC(=O)NC(C)(C)C)cc(C2CCNCC2)n1
assay / entry,31,32,33,34,35,36
NPYLR7 ag,0,2,-4,22,0,7
NPYLR7 ag max-min,10,1,3,12,-1,-4

#37 CC1CCN(C(=O)CC2C(=O)NCCN2Cc2ccc(Cl)c(F)c2)CC1 (stereo not drawn)
#38 COc1ccc(CN2CCN(Cc3cccn3-c3ncccn3)CC2CCO)c(F)c1 (stereo not drawn)
#39 CCc1nnc(NC(=O)c2cccc(S(=O)(=O)N3CCCCC3)c2)s1
#40 COCCCN(C(=O)Nc1c(C)cccc1Cl)C1CCN(C)CC1
#41 CCC(CC)NC(=O)COc1ccc2c3c(c(=O)oc2c1)CCC3
#42 O=C1NCC2(CCCN(C(=O)c3cc(=O)n(-c4ccccc4)[nH]3)CC2)O1 (stereo not drawn)
assay / entry,37,38,39,40,41,42
NPYLR7 ag,13,-5,-8,-2,3,7
NPYLR7 ag max-min,5,-5,-14,-5,3,0

#43 CCN(CC)S(=O)(=O)c1cc(C)c(C)c(NC(=O)c2ccsc2)c1
#44 CCCN(CC(=O)c1c(C)c(C(=O)OC)n(CC)c1C)C(=O)C(C)(C)CCl
#45 CN(Cc1ccccc1O)C(=O)c1cc(Cl)c(Cl)n1C
#46 CCOC(=O)c1c(NS(=O)(=O)c2ccc(NC(C)=O)cc2)sc(C)c1-c1ccc(OC)cc1
#47 Cc1nc2n(n1)C(=O)C(C(c1ccc(F)c(F)c1)N1CCC(C)CC1)S2 (stereo not drawn)
#48 CC(=O)Nc1sc(/C(C#N)=C/C(C)c2ccccc2)nc1-c1ccc(C)cc1 (stereo not drawn)
assay / entry,43,44,45,46,47,48
NPYLR7 ag,7,-5,8,2,-1,7
NPYLR7 ag max-min,-1,-5,2,9,-3,10

#49 O=c1c(O)c(-c2ccc(O)c(O)c2)oc2c(O[C@@H]3O[C@H](CO)[C@H](O)[C@@H](O)[C@H]3O)c(O)cc(O)c12
#50 CCCCc1ccc(C(=O)Nc2nnc(SCC)s2)cc1
#51 CCCCCCCCCn1c(NCCC)nc2c1c(=O)[nH]c(=O)n2C
#52 CCOC(=O)c1cc(-c2cccc(NC(=O)c3cnn(C)c3Cl)c2)n(-c2cccc(C)c2)n1
#53 CC(C(=O)Nc1ccc(F)cc1)n1cnc2c1c(=O)n(C)c(=O)n2C (stereo not drawn)
#54 O=C(NCc1ccccn1)C1COC2(CCN(C(=O)c3cccc([N+](=O)[O-])c3)CC2)N1C(=O)c1ccco1 (stereo not drawn)
assay / entry,49,50,51,52,53,54
NPYLR7 ag,-1,-4,17,26,-12,4
NPYLR7 ag max-min,-7,-7,11,13,-10,6

#55 CCCN(CCC)C(=O)c1cc(S(=O)(=O)NCC)ccc1F
#56 CCCCNC(CC(=O)Nc1cccnc1)C(=O)O (stereo not drawn)
#57 COCCN(CCC(=O)N1CCN(c2ccccc2Cl)CC1)c1nc(Cc2cccc(OC)c2)ns1
#58 N[n+]1cnn(CC(=O)c2ccc(Br)cc2Br)c1
#59 CN=c1scc(-c2ccccc2)n1N=Cc1ccc2c(c1)OCCO2
#60 COCC(=O)Nc1ccc(-n2nc(OCC(C)C)nc2-c2cccc(F)c2)cc1
assay / entry,55,56,57,58,59,60
NPYLR7 ag,6,25,23,-9,2,-3
NPYLR7 ag max-min,6,17,29,-14,1,5

#61 CC(=O)SC[C@@H](C)C(=O)N1CCCC1C(=O)NCCc1nc(-c2ccccc2)c(C)s1 (stereo partly drawn)
#62 O=C1CSC(c2ccccn2)N1c1ccccc1 (stereo not drawn)
#63 Cc1cc(Cl)cc2sc(N(Cc3cccnc3)C(=O)C(C)C)nc12
#64 CCOc1cc(C2c3nc[nH]c3CCN2Cc2ccco2)ccc1OC (stereo not drawn)
#65 CCCCc1ccc(C2=N/C(=C\C(C)=C\c3ccccc3)C(=O)O2)cc1
#66 S=C(NCCN1CCOCC1)NNc1nncc2ccccc12
assay / entry,61,62,63,64,65,66
NPYLR7 ag,-7,-7,2,6,-2,3
NPYLR7 ag max-min,-12,-8,2,2,-3,2

#67 COc1ccc2nc(C)c(C(=O)N=c3sccn3C)cc2c1
#68 CC(=O)NCC1CCCN(c2nc(C(C)(C)C)nc3c2cnn3C)C1 (stereo not drawn)
#69 Cc1ccccc1OCC(O)CN(CCN1CCOCC1)Cc1cccn1Cc1ccccc1 (stereo not drawn)
#70 CCCSc1ncccc1C(=O)NC(Cc1ccc(Cl)cc1)C(=O)OCC (stereo not drawn)
#71 OC1CSc2n(Cc3ccccc3)c3ccccc3[n+]2C1 (stereo not drawn)
#72 Cc1ccc(C(=O)N2CCCC(CO)(Cc3ccccc3C)C2)s1 (stereo not drawn)
assay / entry,67,68,69,70,71,72
NPYLR7 ag,20,3,4,-7,3,8
NPYLR7 ag max-min,18,3,6,-13,3,-1

#73 Cc1nc(C)c(Cc2ccc([N+](=O)[O-])cc2)c(N2CCN(C(=O)C3CC3)CC2)n1
#74 COCC1(C(=O)N2C[C@H](OC(C)C)[C@@H](O)C2)CCC1
#75 CN(Cc1ccc(F)cc1F)C(=O)NCc1ccccc1
#76 CC(=O)Oc1c(C)cc(CNCc2ccccc2-n2cncn2)cc1C
#77 O=C(CC1CCCC1)N1CCN(c2ncnc3c2nnn3Cc2ccccc2)CC1
#78 CCCCn1c(=O)[nH]c(=O)c2c(C(C)C)c(C#N)c(N)nc21
assay / entry,73,74,75,76,77,78
NPYLR7 ag,-3,23&23,1,20,-11,5
NPYLR7 ag max-min,10,8&14,2,10,-18,2

#79 Cc1occc1C(=O)NNC1=NCCC1
#80 COc1cc(C)c(NC(=O)c2ccc(=O)[nH]c2)cc1OC
#81 Cc1ccccc1-c1nc(COC(=O)c2nnn(-c3ccc(Cl)cc3)c2C)c(C)o1
#82 Cc1c(C(=O)Nc2cccnc2)oc2ccc(Cl)cc12
#83 CCC(C)C(NC(=O)Nc1ccccc1Br)C(=O)Nc1nnc(-c2ccc(C)cc2)s1 (stereo not drawn)
#84 Cc1ccccc1N1CCN(C2CCCN(C(=O)CCc3ccc(F)c(F)c3)C2)CC1 (stereo not drawn)
assay / entry,79,80,81,82,83,84
NPYLR7 ag,3,-1,2,0,2,1
NPYLR7 ag max-min,1,-1,-4,3,14,-3

#85 O=C(N[C@@H]1CCCCC1NC(=O)C1CCCN(C(=O)COc2ccc(Cl)cc2)C1)c1ccc(F)cc1 (stereo partly drawn)
#86 CC(=O)c1cccc(-c2cc(NC(C)C)ncn2)c1
#87 CCN(C(=O)Nc1nnc(C)s1)C(C)c1cc2ccccc2o1 (stereo not drawn)
#88 CCOC(=O)c1cc(-c2ccc(C)c(C)c2)n(-c2ccc(C(=O)NC(Cc3ccccc3)c3ccccc3)cc2)n1 (stereo not drawn)
#89 Cn1ccnc1C(OC(=O)CCC1CCCO1)C(F)(F)F (stereo not drawn)
#90 Cn1c(=O)ccn(CC(=O)N2CCCC2c2noc(C3CC3)n2)c1=O (stereo not drawn)
#91 COc1cccc2c1CCCCN2CC(=O)N1CCCC(C(F)(F)F)C1 (stereo not drawn)
#92 Cn1cnnc1Sc1ccc(Cl)cc1NC(=O)C1CCC1
assay / entry,85,86,87,88,89,90,91,92
NPYLR7 ag,-3,6,-6,4,1,4,11,15
NPYLR7 ag max-min,-2,3,-7,1,0,8,8,9

By substructure, the entries above containing a nitro group on carbon (2)
#54 O=C(NCc1ccccn1)C1COC2(CCN(C(=O)c3cccc([N+](=O)[O-])c3)CC2)N1C(=O)c1ccco1 (stereo not drawn)
#73 Cc1nc(C)c(Cc2ccc([N+](=O)[O-])cc2)c(N2CCN(C(=O)C3CC3)CC2)n1
assay / entry,54,73
NPYLR7 ag,4,-3
NPYLR7 ag max-min,6,10

By substructure: those above with an aryl methoxy group
#7 COc1cccc(C(CN2CCN(S(=O)(=O)c3cccc(OC)c3)CC2)OCc2ccc(C#N)cc2)c1 (stereo not drawn)
#13 COc1ccc(-c2nc3cc(N)c(C#N)c(=O)n3[nH]2)cc1
#20 COc1ccc(OC)c(NC(=O)Nc2ccc(Nc3cc(-n4ccnc4)ncn3)cc2)c1
#30 COc1cccc(NC(=O)CSc2nnc(C3COc4ccccc4O3)n2C)c1 (stereo not drawn)
#38 COc1ccc(CN2CCN(Cc3cccn3-c3ncccn3)CC2CCO)c(F)c1 (stereo not drawn)
#46 CCOC(=O)c1c(NS(=O)(=O)c2ccc(NC(C)=O)cc2)sc(C)c1-c1ccc(OC)cc1
#57 COCCN(CCC(=O)N1CCN(c2ccccc2Cl)CC1)c1nc(Cc2cccc(OC)c2)ns1
#64 CCOc1cc(C2c3nc[nH]c3CCN2Cc2ccco2)ccc1OC (stereo not drawn)
assay / entry,7,13,20,30,38,46,57,64
NPYLR7 ag,26,2,2,15,-5,2,23,6
NPYLR7 ag max-min,16,11,1,14,-5,9,29,2

#67 COc1ccc2nc(C)c(C(=O)N=c3sccn3C)cc2c1
#80 COc1cc(C)c(NC(=O)c2ccc(=O)[nH]c2)cc1OC
#91 COc1cccc2c1CCCCN2CC(=O)N1CCCC(C(F)(F)F)C1 (stereo not drawn)
assay / entry,67,80,91
NPYLR7 ag,20,-1,11
NPYLR7 ag max-min,18,-1,8
